Screening results as filed in PubChem BioAssay.
HPGD block – HPGD (human) dehydrogenase inhibition | 4.3% of 150,000 active | AID 894 | purified HPGD, NADH fluorescence kinetic, PGE2 substrate | Potency, µM, for inactives: at the top dose activity change, negative = inhibition, usual class: inhibitors | P15428; active = well fitted inhibition curve with a large enough effect (not every such curve was filed as active); inconclusive = small, poorly fitted or top-dose-only effect, or another doubt; inactive = no such curve, though single readings can be large or run the other way;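 also: top concentration of the series not given in the record; plate controls included wells without enzyme; inactives centre near -10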
Target sequence (P15428 whole entry, looked up): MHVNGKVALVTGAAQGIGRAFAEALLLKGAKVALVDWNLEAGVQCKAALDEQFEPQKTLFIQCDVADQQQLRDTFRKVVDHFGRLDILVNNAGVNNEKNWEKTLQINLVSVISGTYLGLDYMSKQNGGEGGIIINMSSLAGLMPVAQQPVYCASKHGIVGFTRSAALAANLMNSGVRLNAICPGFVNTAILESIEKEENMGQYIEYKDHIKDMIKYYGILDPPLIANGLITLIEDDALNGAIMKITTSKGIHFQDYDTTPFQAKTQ
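20 nM HPGD preincubated 15 min at room temperature with compound in 50 mM Tris-HCl pH 8, 0.01% Tween 20. Started with 1 mM NAD+ and 30 uM prostaglandin E2; NADH fluorescence (360/450 nm) read 5 times over 30-s intervals, last minus first.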
Starred values were filed as active, the others as inactive; ? = inconclusive; & = joins results of further samples. % is scaled to controls: 0 for no effect and ±100 for the full control effect; potency is read from the fitted curve at half-maximal effect. Only part of the results is shown (hit frequency here may not be typical).

HPGD block	SMILES
-13.0%	CCOC(=O)Cn1cnc(-c2ccc([N+](=O)[O-])cc2)c1
-12.5%	CCCN(CCC)S(=O)(=O)c1ccc(NS(C)(=O)=O)cc1
-5.4%	Cc1nc(-c2ccccc2O)n(-c2ccccc2)n1
-12.5%	CCc1nnc(NC(=O)CSc2nnc(Cc3cccn3C)n2C)s1
?	CCCCNc1nc(C)nc2c1nc(-c1ccccc1)n2CC1CCCN1CC (stereo not given)
-6.8%	Cc1c(O)c2c3c(cccc3c1O)C(=O)N(c1ccccc1)C2=O
-18.2%	CC(=O)N(C)c1ccc(NS(=O)(=O)Cc2ccccc2)cc1
-25.0%	O=C(Nc1ccon1)c1cc2ccccc2oc1=O
-10.7%	COc1ccc(Cl)cc1S(=O)(=O)NCc1cccs1
-26.0%	CCOC(=O)c1ccccc1Oc1c(F)c(F)nc(NCCO)c1F
-20.4%	CCN(CC)S(=O)(=O)c1cccc(C(=O)NCC2CCCO2)c1 (stereo not given)
-14.0%	CC1(NC(=O)N2CCOCC2)CCS(=O)(=O)C1 (stereo not given)
-8.3%	COc1ccccc1/C=C/C(=O)Nc1ccc2c(c1)OCCO2
-5.4%	CCc1ccccc1NC(=S)N(CCN(C)C)C(C)c1ccccn1 (stereo not given)
-1.0%	CC(C)NC[C@@H](O)c1ccc(O)c2ncccc12
-3.6%	O=C(c1ccccc1F)N1CCN(S(=O)(=O)c2ccc(S(=O)(=O)N3CCCCC3)cc2)CC1
1.1%	CCOc1ccc(C(=O)Nc2c3c(nn2-c2cccc(Cl)c2)CS(=O)C3)cc1 (stereo not given)
-3.0%	CCOC(=O)c1c(P(=O)(N2CCOCC2)N2CCOCC2)noc1N
-8.0%	CC1CCC(C(C)C)C(O)C1 (stereo not given)
-19.4%	CCOC(=O)c1sc(NC(=O)c2cccnc2)c(C#N)c1C
-19.0%	CN(C)/C=C(\C#N)C(=O)c1cccc(Oc2ccc(Br)cc2)c1
20µM*	Cc1ccc(-c2noc(C3CCCN(S(=O)(=O)c4ccc5ccccc5c4)C3)n2)o1 (stereo not given)
-17.7%	O=c1[nH]c(=O)n(Cc2ccco2)c2c1C(C(F)(F)F)(C(F)(F)F)N=C(c1ccco1)N2
-14.7%	CCOC(=O)Cc1csc(NC(=O)COc2ccccc2OC)n1
-9.8%	O=C1CC(C(=O)Nc2ncccn2)C(c2ccccc2)O1 (stereo not given)
-4.8%	O=C(NCCN1CCOCC1)C1CCC(CNS(=O)(=O)c2ccc(Cl)cc2)CC1 (stereo not given)
-29.1%	C=CCNC(=S)Nc1sc2c(c1C(=O)OCC)CC(C(C)C)OC2 (stereo not given)
-5.6%	COC(=O)CCC(=O)OC1(C)C(=O)C=C2C=C(C3CC3)N(C3CC3)C=C2C1=O (stereo not given)
-23.8%	CSc1nsc(/C=C/Nc2ccc(Cl)cc2)c1C#N
-16.4%	CCN(c1nc(N)c(C(=O)N=C(N)N)nc1Cl)C(C)C

Records listed so far that bear a hit mark in HPGD block.
HPGD block	SMILES
20µM*	Cc1ccc(-c2noc(C3CCCN(S(=O)(=O)c4ccc5ccccc5c4)C3)n2)o1 (stereo not given)

(next part)
HPGD block	SMILES
-2.7%	Cc1cc(-c2c(C)[nH]n(-c3ccc(Cl)cc3)c2=O)n[nH]1
-2.7%	CCOC(=O)c1c(NC(=O)CSc2nnc(-c3cccnc3)o2)sc(C)c1C
-12.5%	CN(C)S(=O)(=O)c1cccc(C(=O)NCCc2ccccc2)c1
3.1%	CCOc1ccc(CCNS(=O)(=O)c2cnc[nH]2)cc1OCC
-4.6%	CC1=C(C(=O)Nc2ccc(C)cc2C)C(c2cccc(Cl)c2)n2nc(C(=O)OC(C)C)nc2N1 (stereo not given)
-18.2%	COc1ccccc1C(CCNS(=O)(=O)c1ccc(C)cc1)c1ccco1 (stereo not given)
-17.3%	C=CCNC(=O)CSc1nnc(-c2cccs2)o1
?	Cc1ccc(CN2CCSc3ccc(C(=O)N4CCN(c5ncccn5)CC4)cc32)cc1
-5.9%	COC(=O)C1Cc2c([nH]c3ccccc23)C(C)N1 (stereo not given)
-3.1%	COc1ccc(-n2ccnc2SCC(=O)Nc2ccc(OC)cc2OC)cc1
-5.9%	CS(=O)(=O)N(Cc1ccccc1)c1ccc(C(=O)NN=C2CCCCCC2)cc1
1.8%	S=C(N/N=C1\C2CN3CCN(C2)CC1(c1ccccc1)C3)Nc1ccccc1
?	Cc1cc(=O)oc2cc(O)c(CN(C)CC(=O)O)cc12
-4.6%	COc1cccc(-c2nnc(SCc3nc4ccccc4s3)n2C)c1
-24.1%	C=CCN1CN(S(=O)(=O)c2cccs2)c2nc3ccccc3nc21
-15.1%	CCN(CC)C(=O)CSc1nnc(-c2cnccn2)n1-c1ccc(C)cc1
-22.1%	Cc1cnn(-c2cc(N/N=C/c3ccccc3)ncn2)c1
-10.8%	O=C(O)CCc1ccc(-c2cccs2)n1-c1ccc(C(=O)O)cc1
-2.8%	CN(CC(=O)Nc1cccc2ccccc12)c1ccc(S(=O)(=O)N2CCOCC2)cn1
35.5µM*	Cc1cc(C)c(S(=O)(=O)NCC23C=CC(O2)C2C(=O)N(c4ccccc4)C(=O)C23)c(C)c1 (stereo not given)
-20.1%	CCOC(=O)CC(=O)CSc1nc(-c2cccnc2)cc(C)c1C#N
-2.3%	COc1cccc(-c2csc(N3CCN(C(=S)Nc4ccccc4OC)CC3)n2)c1
-2.4%	COc1ccc(C2CC(c3ccccc3C)n3nc(N)nc3N2)cc1 (stereo not given)
-26.8%	CCN(c1ccccc1)S(=O)(=O)c1cccc(C(=O)OCc2nc3sc(C)c(C)c3c(=O)[nH]2)c1
?	CCOC(=O)c1c(NC(=O)c2cccs2)sc(C)c1C
7.9%	Cc1ccc(C(C)C)cc1OCCN1CCCC1
?	O=C1OCCN1C(=O)[C@H]1[C@H](c2ccc(F)cc2)C(c2cccc(Cl)c2)=NN1c1ccc(Br)cc1
-21.1%	Cc1cnc(NC(=O)c2ccc(-c3nc4ccccc4s3)o2)s1
-28.0%	Cc1ccc2[nH]c(=O)c(COC(=O)c3ccccn3)cc2c1
-13.8%	CN1CCc2cc3c(c4c2C1CC41CCC(=NO)CC1)OCO3 (stereo not given)
0.0%	CC1(C)NC(=O)N(CCCSc2ccc(Cl)cc2)C1=O
-19.4%	Cc1ccccc1-n1nc2c(c1NC(=O)/C=C\c1ccc3c(c1)OCO3)CSC2
-2.3%	Cc1ccc(C(C(=O)NC(C)(C)C)N(Cc2cccs2)C(=O)c2ccc3c(c2)OCCO3)cc1 (stereo not given)
?	Cc1ccc2c(c1)-c1cc(C)nn1C(c1ccc3c(c1)OCO3)N2 (stereo not given)
-10.4%	C/C(=N\N1CCN(c2ccccc2)CC1)c1ccco1
-8.4%	Cc1ccc(C2N(c3nccs3)C(=O)C3CCCN32)cc1 (stereo not given)
?	N#Cc1c(NC(=O)CSc2ncnc3sccc23)oc(-c2ccco2)c1-c1ccco1
-1.4%	Cc1cccc(NC(=S)NN2CCN(C)CC2)c1
?	COC(=O)c1cc(Cl)c(NC(=O)c2cc(OC)c(OC)c(OC)c2)cc1OC
-1.6%	CCOc1ccc(N(C(C)C(=O)NN=C2CCCCCCC2)S(C)(=O)=O)cc1 (stereo not given)
-11.5%	CN1C(=S)SC(C)(C)C1NO (stereo not given)
1.5%	O=C(CP(=O)(c1ccccc1)c1ccccc1)Nn1cnnc1
-15.8%	COc1ccnc(N2CCN(c3cccc(C(F)(F)F)c3)CC2)c1C#N
0.0%	N#C/C(=C\c1ccc(F)c(F)c1)C(=O)NC1CCCCC1
-20.1%	CCOC(=O)CC(NC(=O)c1cc2ccccc2oc1=O)c1cccc([N+](=O)[O-])c1 (stereo not given)
-16.4%	O=C1Cc2ccccc2C(=O)N1CCc1ccccc1
-9.3%	O=C(NCC1CCCO1)C(c1cccnc1)N(C(=O)Cc1cccs1)c1ccccc1 (stereo not given)
-9.4%	Cc1ccc(C2C(C#N)=C(N)Oc3nc(-c4ccccc4)[nH]c32)o1 (stereo not given)
3.3%	O=C(O)c1ccccc1-c1nc2ccccc2n1-c1ccccc1
-21.4%	O=C(CNC(=O)Cc1ccccc1)NCC(=O)OCc1ccc(C(=O)c2ccccc2)cc1
-15.0%	Cc1cc(C)nc(N2CCC(C(=O)NC3CCCc4ccccc43)CC2)n1 (stereo not given)
-8.3%	Cc1ccc(S(=O)(=O)c2c(C)nn(C(C)(C)C)c2OC(=O)C(C)(C)C)cc1
5.01µM*	COc1ccc(S(=O)(=O)/N=C2/NC(=O)/C(=C\c3cc(OC)c(OC)cc3[N+](=O)[O-])S2)cc1
25.1µM*	O=C(Oc1ccc(Br)cc1C(=S)N1CCCC1)c1ccccc1F
-9.2%	CCOC(=O)N1CCN(C(=O)CS(=O)(=O)c2cn(Cc3ccccc3C)c3ccccc23)CC1
-2.0%	CCOC(=O)C(C)On1c(-c2ccc(Cl)cc2)nc2ccc([N+](=O)[O-])cc21 (stereo not given)
-15.1%	CN(CC(=O)NC(=O)NCc1ccccc1)Cc1ccc(Cl)c(Cl)c1
?	COc1cccc(OC)c1-c1nn2c(-c3ccccc3Cl)nnc2s1
-5.5%	COC(=O)C1=C(C(=O)OC)[C@@H]2N(C)c3ccc(OC)cc3[C@@]23C[C@@H](C(=O)OC)N(S(=O)(=O)c2c(C)noc2C)C3=N1
-3.8%	CCOC(=O)Cc1nnc(NC(=O)CC)s1

A few values from the entries so far.
Under HPGD block, COC(=O)C1=C(C(=O)OC)[C@@H]2N(C)c3ccc(OC)cc3[C@@]23C[C@@H](C(=O)OC)N(S(=O)(=O)c2c(C)noc2C)C3=N1 is listed with -5.5%
Under HPGD block, CCOC(=O)N1CCN(C(=O)CS(=O)(=O)c2cn(Cc3ccccc3C)c3ccccc23)CC1 is listed with -9.2%

(listing goes on)
HPGD block	SMILES
-27.4%	COc1c(N2CCN(C(=S)Nc3ccc(F)cc3)C(C)C2)c(F)cc2c(=O)c(C(=O)O)cn(C3CC3)c12 (stereo not given)
-23.0%	Cc1ccc(CNC(=O)c2ccc(N3CCc4ccccc43)c([N+](=O)[O-])c2)cc1
-17.0%	O=C(c1cc2ccccc2oc1=O)N(Cc1ccco1)C1CCS(=O)(=O)C1 (stereo not given)
-3.8%	Cc1cccc(C)c1NC(=O)C1(NC(=O)C2CCCN2C(=O)OC(C)(C)C)CCCCC1 (stereo not given)
-5.5%	CCCn1cc(SCC(=O)Nc2nnc(C)s2)c2ccccc21
-7.2%	Cc1ccc(CNC(=O)c2oc3ccc(S(=O)(=O)N4CCOCC4)cc3c2C)cc1
-3.4%	C=CCNc1nc(-c2c(C)nc3sccn23)cs1
-25.4%	O=C(O)c1cc(NCc2c(F)cccc2Cl)ccc1N1CCOCC1
-4.7%	O=C(NCCNC(=O)c1cc(OCC(F)(F)F)ccc1OCC(F)(F)F)Nc1ccc(Cl)cc1
0.4%	CCC(C)N(C)Cc1cccc(C2(O)CCN(S(=O)(=O)c3ccc(F)c(C)c3)CC2)c1 (stereo not given)
-10.7%	Cc1cc(NC(=O)c2cnn3c(C(F)F)cc(-c4ccccc4)nc23)no1
-5.2%	Cc1c(C(=O)O)oc2ccc(S(=O)(=O)NCc3ccccc3)cc12
?	CCCCNC(=O)CCC(=O)Nc1ccc2nc(N3CCOCC3)cc(C)c2c1
-12.6%	Cc1nc2sc(C(c3ccco3)N3CCC(C)CC3)c(O)n2n1 (stereo not given)
-5.9%	COc1ccc(C(=O)NCCSc2ccccn2)cc1
-28.3%	COc1ccc(C(=O)N2CCC3(CCCN(c4ccccn4)C3)CC2)cc1
-0.5%	CCOC(=O)CC1=C(C(=O)OCC)C(c2cc(OC)c(OC)cc2OC)C(C#N)=C(N)O1 (stereo not given)
-2.8%	COC(=O)CNC(=O)CNC(=O)Nc1ccccc1Cl
-4.1%	N/C(CCCN1CCCCC1)=N/O
?	CC(C)NC(=O)COC(=O)c1cc(=O)[nH]c2ccccc12
-4.9%	CNS(=O)(=O)c1cccc(C(=O)OCC(=O)N2CCc3ccccc3C2)c1
-7.7%	CC(C)NC(=O)N1CCC2(CC1)CCN(S(=O)(=O)c1ccccc1)CC2
15.8µM*	CCn1ncc(/C=C2/SC(=S)NC2=O)c1C
14.1µM*	CCN(CC)C(=O)CSc1nc2ccc(NC(=O)CSc3nnc(N)s3)cc2s1
-12.8%	CC(O/N=C/c1ccc(OC(F)F)cc1)C(=O)Nc1cccc(S(=O)(=O)N2CCOCC2)c1 (stereo not given)
-13.4%&-1.3%	Nc1cc(C(Cl)=C(Cl)Cl)c(S(N)(=O)=O)cc1S(N)(=O)=O
-12.2%	COCc1nc2ccccc2n1Cc1ccccc1Br
-3.2%	O=C(CNC(=O)c1ccco1)NCC(=O)OCc1ccc(Cl)cc1
-11.4%	COc1ccc(N=C2S/C(=C\c3ccc(C)s3)C(=O)N2CC(C)C)cc1
-13.4%	O=C(Nc1ccc(OC(F)(F)F)cc1)c1cnc2n(c1=O)CCS2
-3.5%	COc1cc(S(=O)(=O)Nc2ncccc2C)c(OC)cc1Cl
-1.3%	COc1ccccc1N/C(=N/S(=O)(=O)c1ccc(C)cc1)c1ccc(Cl)cc1
-6.4%	CC1CCN(C(=S)c2cn(Cc3cccc(F)c3)c3ccccc23)CC1

Rewritten bar-delimited: part of the list above
compound | HPGD block
Cc1nc(-c2ccccc2O)n(-c2ccccc2)n1 | -5.4%
CC(C)NC(=O)COC(=O)c1cc(=O)[nH]c2ccccc12 | ?
CNS(=O)(=O)c1cccc(C(=O)OCC(=O)N2CCc3ccccc3C2)c1 | -4.9%
COc1ccc(-n2ccnc2SCC(=O)Nc2ccc(OC)cc2OC)cc1 | -3.1%
CCOC(=O)c1c(NC(=O)c2cccs2)sc(C)c1C | ?

Ordered by the number under HPGD block (rising): 3 from the list above.
HPGD block	SMILES
-13.4%	O=C(Nc1ccc(OC(F)(F)F)cc1)c1cnc2n(c1=O)CCS2
-12.8%	CC(O/N=C/c1ccc(OC(F)F)cc1)C(=O)Nc1cccc(S(=O)(=O)N2CCOCC2)c1 (stereo not given)
-2.8%	COC(=O)CNC(=O)CNC(=O)Nc1ccccc1Cl
